Source: PubChem (Southern Research Institute)
Mtb growth: Mycobacterium tuberculosis H37Rv growth inhibition, cell based, confirmatory dose response (AID 1949) | most inactive calls were filed without a number and no value below 0 was filed | one-dose inhibition, % at 10 µg/mL; IC50 in µg/mL for titrated hits | 100,000 compounds, 1.6% hits;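 active = confirmed in a dose series; inconclusive = about 50% or more but not retested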;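 note: bacteria grown 7 days with compound before Alamar blue readout; 0% = untreated bacteria and 100% = reference antibiotic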
Numbers without * were called inactive; i = inactive; ? = inconclusive.

SMILES	Mtb growth
CCOc1ccc(NC(=O)NCCCn2cc(Br)cn2)cc1	i
O=C(NCc1cccs1)c1ccncc1	i
O=C(Nc1nc(-c2ccc(Cl)cc2)cs1)c1cc(-c2ccc(Br)cc2)nc2ccccc12	i
O=C(CCCN1C(=O)c2cccc3cccc(c23)C1=O)Nc1ccon1	i
CCOC(=O)Cc1c(Cl)c2ccccc2[nH]c1=O	i
COc1cc(/C=C\c2[nH]c(=O)[nH]c(=O)c2[N+](=O)[O-])ccc1OCc1ccc(Cl)cc1	i
COc1ccc(C(=O)NCCOc2c(C)cc(Br)cc2C)c(OC)c1OC	i
CC(C)(C)c1ccc(C(=O)NC(Cc2c[nH]c3ccccc23)C(=O)O)o1 (centres undefined)	0%

Following part
SMILES	Mtb growth
COc1ccc(-n2c(=O)c3ccccc3c3ccccc3c2=O)cc1	i
Cc1ccccc1OCC(=O)N1CCN(c2cccc(Cl)c2)CC1	i
CC(=O)c1ccc(NS(=O)(=O)c2ccc(C(C)(C)C)cc2)cc1	i
COc1ccc(N(CC(=O)NCCC(C)C)S(C)(=O)=O)cc1OC	i
Cc1ccc(S(=O)(=O)N(CC(=O)NCc2ccccn2)c2cccc(C)c2C)cc1	i
CCC(C)NCCOc1c(C)cc(C)cc1Br (centres undefined)	1%
CCCCOc1cccc(C(=O)NNC(=S)Nc2ccc(F)c(Cl)c2)c1	i
CCOC(=O)c1cccc(NC(=O)C(CC)Oc2ccccc2)c1 (centres undefined)	3%

Molecules above that contain a halogen, in the order listed:
SMILES	Mtb growth
CCOc1ccc(NC(=O)NCCCn2cc(Br)cn2)cc1	i
O=C(Nc1nc(-c2ccc(Cl)cc2)cs1)c1cc(-c2ccc(Br)cc2)nc2ccccc12	i
CCOC(=O)Cc1c(Cl)c2ccccc2[nH]c1=O	i
COc1cc(/C=C\c2[nH]c(=O)[nH]c(=O)c2[N+](=O)[O-])ccc1OCc1ccc(Cl)cc1	i
COc1ccc(C(=O)NCCOc2c(C)cc(Br)cc2C)c(OC)c1OC	i
Cc1ccccc1OCC(=O)N1CCN(c2cccc(Cl)c2)CC1	i
CCC(C)NCCOc1c(C)cc(C)cc1Br (centres undefined)	1%
CCCCOc1cccc(C(=O)NNC(=S)Nc2ccc(F)c(Cl)c2)c1	i

Next part.
SMILES	Mtb growth
CS(=O)(=O)N(CCc1ccccc1)CC(=O)N1CCCCCC1	4%
O=C(CSc1ncn(-c2ccccc2)n1)Nc1ccc(Cl)cc1Cl	5%
CCOc1ccc(C(=O)NC(=S)NCc2ccc(-c3nc4ccccc4s3)cc2)cc1[N+](=O)[O-]	1%
COc1ccc(C=O)cc1CSc1nc2ccc(C)cc2[nH]1	i
C=CCn1c(SCC(=O)NCc2ccco2)nc2sc(C)cc2c1=O	i
Cc1ccc(-c2ccc(/C=C3\SC(N)=NC3=O)o2)c([N+](=O)[O-])c1	i
COC(=O)C1=C(C)N(C)C(C)=C(C(=O)OC)C1c1ccc(OCc2ccccc2)cc1	i
Cc1ccc(S(=O)(=O)Nc2cc(Cl)c(O)c3ccccc23)c(C)c1	4%

Following part
SMILES	Mtb growth
O=C(CN1C(=O)c2cccc([N+](=O)[O-])c2C1=O)N1CCN(c2ccc(F)cc2)CC1	i
COc1ccc(Cl)cc1N(CC(=O)Nc1cccnc1)S(C)(=O)=O	0%
O=C(Nc1ccc(I)cc1C(F)(F)F)c1cccs1	6%
Cc1ccsc1/C=C(/C#N)C(N)=S	2%
CCC(C(=O)Nc1cc(C)cc(C)n1)c1ccccc1 (centres undefined)	6%
O=C(CSc1nnc(-c2cccc3ccccc23)n1-c1ccccc1)NC1CC1	i
COc1ccc(OC)c(C(C)NC(=O)Nc2cccc(C(C)=O)c2)c1 (centres undefined)	?
CC(C)(C)OC(=O)COc1cc(OCC(=O)OC(C)(C)C)c2c(c1)oc(=O)c1ccccc12	i

Next section
SMILES	Mtb growth
O=[N+]([O-])c1ccn(Cc2ccc(Br)cc2)n1	i
Cc1cc(F)ccc1NC(=O)c1ccoc1C	i
O=C(NCC(O)CN1CCOCC1)c1ccc(Br)cc1 (centres undefined)	i
CCOC(=O)c1ccc(NC(=S)NCCn2cc(Cl)cn2)cc1	21%
COC(=O)Cc1ccc(NC(=O)c2ccc(C)c(C)c2)cc1	10%
COc1ccc(-c2oc3ncn4nc(COc5ccc(C)cc5)nc4c3c2-c2ccc(OC)cc2)cc1	i
COc1ccc(CCNC(=S)Nc2ccc(C)cc2C)cc1	2%
COc1ccc(C2(C(=O)N3CCOCC3)CCOCC2)cc1	i

The list continues:
SMILES	Mtb growth
CCOC(=O)c1c(-c2ccc(C)cc2)csc1NC(=O)c1cccc(OC(C)=O)c1	i
CN(C)Cc1cc(C(C)(C)c2ccccc2)cc(CN(C)C)c1O	2%
COc1ccc(Cl)cc1NC(=O)COc1cc(C)ccc1C(C)C	i
COc1ccccc1NC(=O)C1=C(C)NC(SCC(=O)Nc2ccccc2[N+](=O)[O-])=C(C#N)C1c1ccccc1 (centres undefined)	i
CC(=O)Nc1nc(C(F)(F)F)c(-c2ccccc2)s1	0%
CCc1nc(SCC(=O)NC(C)CCc2ccccc2)c2c3c(sc2n1)COC(C)(C)C3 (centres undefined)	i
Cc1ccc(OCCn2nc3ccccc3n2)c(C)c1	10%
Cc1ccc(N(Cc2ccc(C(N)=O)cc2)S(C)(=O)=O)cc1C	i

Remaining list, next part:
SMILES	Mtb growth
COc1cccc(/C=C2\C(=O)NC(=O)N(c3cccc(Cl)c3C)C2=O)c1	i
CCc1cc2c(N3CCN(c4ccccn4)CC3)ncnc2s1	34%
O=C1c2ccc(-c3nc4ccccc4c(=O)o3)cc2C(=O)N1Cc1ccccc1	i
Cc1cc(C(=O)NC(C)c2ccc(C)c(C)c2)cs1 (centres undefined)	i
COc1cccc(NC(=O)CSc2nncn2C)c1	i
COc1ccc(CCNC(=O)COc2ccc(S(=O)(=O)NC3CCCCC3)cc2)cc1	i
CCOc1ccccc1CN1CCCC(C(=O)N(C)Cc2ccccc2)C1 (centres undefined)	5%
O=C(NC(=S)Nc1ccccc1Br)c1ccco1	5%

Next part:
SMILES	Mtb growth
Cc1cc(NC(=O)c2sc3cc(Cl)ccc3c2Cl)ccc1NC(=O)c1ccco1	i
Cc1cc(I)ccc1NC(=O)CSc1nnc(C(C)Oc2ccccc2)n1C (centres undefined)	i
CC1CN(S(=O)(=O)N(C)C)CCN1S(=O)(=O)N(C)C (centres undefined)	i
Cc1cccc(N2C(=O)/C(=C\c3cn(CC(=O)Nc4ccccc4)c4ccccc34)C(=O)NC2=S)c1	i
CS(=O)(=O)Nc1ccc(Cl)cc1C(=O)c1ccccc1	i
CC(=O)c1cccc(NC(=O)COc2ccccc2)c1	i
c1ccc(-c2noc(COc3ccc4ccccc4c3)n2)nc1	8%
CC(C)(C)C(=O)NC(=S)Nc1ccc(Cl)c(C(=O)O)c1	i

Further structures follow:
SMILES	Mtb growth
CCCCNC(=O)CSc1nccn1Cc1ccccc1	i
COc1cccc(NC(=O)c2c(F)c(F)c(F)c(F)c2F)c1	9%
O=C(Cn1cnc2ccccc2c1=O)Nc1nc2c(s1)CCCC2	i
CCNC(=S)Nc1ccc(Cl)cc1C	i
CCOc1cc(C2NC(=O)NC(C)=C2C(=O)OC)cc(Cl)c1OCc1ccccc1 (centres undefined)	3%
COc1ccc(N2CCN(C(=O)CCN3C(=O)c4ccccc4C3=O)CC2)cc1	i
Cc1c(NC(=S)NC(=O)c2cccc(Cl)c2Cl)cccc1C(=O)O	i
COc1ccc(CSCC(=O)Nc2cc([N+](=O)[O-])ccc2C)cc1	i

Remaining list, next part.
SMILES	Mtb growth
CC(=O)Nc1ccc(NC(=O)c2cccc(C)c2)cc1	i
Cc1ccc(Cl)c(N2CCN(CCCn3c(=S)[nH]c4ccccc4c3=O)CC2)c1	2%
CS(=O)(=O)N1CCN(C(=O)C(Sc2ccccc2)c2ccccc2)CC1 (centres undefined)	i
COc1cccc(CNCCO)c1OCc1ccccc1Cl	7%
Cc1cc2c3c(c1)C1(C(=O)N3C(C)(C)CC2C)C(C#N)=C(N)Oc2n[nH]c(C)c21 (centres undefined)	i
COc1ccccc1Oc1ccc2c(c1)C(=O)N(c1nc(-c3ccccc3)cs1)C2=O	i
Cc1cc2sc(NC(=O)c3cc(I)ccc3Cl)nc2cc1Cl	i
Cc1ccc(N2CCN(S(=O)(=O)N3CCCCC3)CC2)cc1Cl	3%

The list goes on.
SMILES	Mtb growth
CC(C)(C)c1cc(NC(=O)c2cccs2)no1	2%
CC(=O)NCCc1ccc(S(=O)(=O)N(C)C)cc1	i
O=C1N/C(=N/N=C/c2cccs2)SC1Cc1cccc(Cl)c1 (centres undefined)	2%
C=CCn1c(SCC(=O)Nc2ccccn2)nc2sc3c(c2c1=O)CC(C)(C)SC3	i
Cc1nc(CN2CCN(C(=O)NC3(c4ccccc4)CC3)CC2)cs1	0%
CCOc1ccc(N(CC(=O)NC2CCCC2)S(=O)(=O)c2ccc(OC)c(OC)c2)cc1	i
O=C(CNC(=O)c1ccco1)Nc1ccc(F)cc1	0%
Cc1ccc(C)c(NC(=O)CCN2CCN(Cc3ccccc3)CC2)c1	i

Other records
SMILES	Mtb growth
Cc1cc(C)nc(SCC(=O)Nc2nnc(SCc3ccccc3)s2)n1	i
O=C(O)CCN=C(NS(=O)(=O)c1ccccc1)c1ccccc1	i
CCOc1cc(C2C3=C(CCCC3=O)NC3=C2C(=O)CCC3)ccc1OCc1ccc([N+](=O)[O-])cc1	i
CC(=O)C12c3ccccc3C(c3ccccc31)C1C(=O)N(Cc3ccccc3)C(=O)C12 (centres undefined)	i
COc1ccc(S(=O)(=O)NC2CC3CCC2C3)cc1Br (centres undefined)	12%
CCn1cc(/C=C(/C#N)S(=O)(=O)c2ccccc2)cn1	i
Cc1c(Br)cc(C(=O)Nc2cc(Cl)ccc2Cl)c(C)c1C	i
Cc1nc(NCCO)c2sc3nc4c(cc3c2n1)COC(C)(C)C4	i

Continued:
SMILES	Mtb growth
C=CCn1c(SCC(=O)Nc2cccc(OC)c2)nc2sc3c(c2c1=O)CCCCC3	6%
CCOC(=O)c1c(-c2cccs2)csc1NC(=O)C1CC1	i
O=C(Nc1ccc2c(c1)Cc1ccccc1-2)c1cccnc1	1%
CCOc1ccccc1NC(=O)CN(c1ccccc1)S(=O)(=O)c1ccc(OC)c(OC)c1	i
CCOc1ccc(S(=O)(=O)Nc2cccc(Cl)c2)cc1	i
C=CCNCCOc1c(Cl)cc(C)cc1Br	i
CC(=O)Nc1ccc(S(=O)(=O)Nc2cccc(C)c2C)cc1	3%
O=C(Nc1ccc2c(c1)OCO2)c1cc(-c2ccccc2)on1	i

2 entries from above, with each value named:
C=CCNCCOc1c(Cl)cc(C)cc1Br
  Mtb growth: i

CC(=O)Nc1ccc(S(=O)(=O)Nc2cccc(C)c2C)cc1
  Mtb growth: 3%

Other compounds
SMILES	Mtb growth
CCN(CC)CCNC(=O)c1ccccc1NC(=O)c1ccccc1	i
O=C(NC(=S)Nc1ccc2oc(-c3ccc(F)cc3Cl)nc2c1)c1cc2ccccc2o1	i
c1ccc(-c2nn3c(Cn4cnc5ccccc54)nnc3s2)cc1	6%
Cn1nc(-c2ccc(C(=O)NCCN3CCOCC3)cc2)c2ccccc2c1=O	i
COc1ccc(C2CC(=O)C3=C(C2)Nc2ccccc2N(C(=O)C2CC2)C3c2cccnc2)cc1OC (centres undefined)	i
O=S(=O)(NC1CCCCC1n1cc(-c2ccccc2)nn1)c1ccc(Cl)cc1 (centres undefined)	i
COCCCNC(=S)Nc1c(C(C)C)cccc1C(C)C	i
COc1cccc(/C=C2/C(=O)NC(=O)N(c3ccc(Cl)cc3)C2=O)c1OC	i

(continued)
SMILES	Mtb growth
CC(C)c1cccc(C(C)C)c1NS(=O)(=O)c1cccs1	13%
CC(C)(C)Nc1ncnc2c1cnn2-c1ccccc1	7%
Cc1cc(Br)ccc1NS(C)(=O)=O	i
COc1ccc(-c2nnn(CC(=O)Nc3ccc(OC)cc3OC)n2)cc1	i
O=C(O)CC(CC(=O)Nc1cccc([N+](=O)[O-])c1)c1ccccc1 (centres undefined)	i
COc1cc(OC)c(C(=O)Nn2cnnc2)cc1OC	i
COc1ccc(C(=O)Nc2nc(C(F)(F)F)c(-c3ccccn3)s2)cc1OC	i
COC(=O)c1ccc(Oc2nc(N(C)C)nc(N3CCOCC3)n2)cc1	i

(list continues)
SMILES	Mtb growth
COC(=O)Cc1c(C)c2ccc(OCc3cccc(C)c3)c(C)c2oc1=O	i
O=C(CSCc1ccccc1)N1CCN(C(=O)c2ccco2)CC1	i
NS(=O)(=O)c1ccc(CCNC(=O)c2ccco2)cc1	i
Cc1ccc(NC(=O)C2CC(Cl)=CCC2C(=O)O)c(Br)c1 (centres undefined)	i
COc1ccc(S(=O)(=O)n2cnc(C)c2)cc1	i
COc1cc(CNc2ccc(C)c(Cl)c2)cc(I)c1OC	5%
CCC(C)c1ccc(NC(=O)N2c3ccccc3Sc3ccccc32)cc1 (centres undefined)	4%
O=C(NC1CCCCC1)c1ccc(C(=O)NC2CCCCC2)c([N+](=O)[O-])c1	i

Going on with the list.
SMILES	Mtb growth
O=[N+]([O-])c1ccc(-c2[nH]c(-c3cccs3)nc2-c2ccccc2)cc1	2.9µg/mL*
COCCCNC(=O)c1c(NC(=O)C2COc3ccccc3O2)sc2c1CCCC2 (centres undefined)	i
COc1c(S(=O)(=O)N2CCCN(S(=O)(=O)c3ccc(Cl)c(Cl)c3OC)CC2)ccc(Cl)c1Cl	i
N#Cc1ccc(CN2CCOCC2)cc1	i

The list is partial; the hit share may differ from the screen's.
